# Source: PubChem BioAssay
# VDR inhibitor – vitamin D3 receptor (human) inhibition; P11473; VDR-SRC2-3 peptide fluorescence polarization, 2 h; Potency, µM, for the others: max response, negative = inhibition, actives largely listed as inhibitors; 400,000 tested, 0.93% active; AID 504847; active = well fitted inhibition curve with a large enough effect; inconclusive = small, poorly fitted or top-dose-only effect, or another doubt; inactive = no such curve, though single readings can be large or run the other way; also: series mostly up to about 120 µM
# Target sequence (P11473 whole entry, looked up): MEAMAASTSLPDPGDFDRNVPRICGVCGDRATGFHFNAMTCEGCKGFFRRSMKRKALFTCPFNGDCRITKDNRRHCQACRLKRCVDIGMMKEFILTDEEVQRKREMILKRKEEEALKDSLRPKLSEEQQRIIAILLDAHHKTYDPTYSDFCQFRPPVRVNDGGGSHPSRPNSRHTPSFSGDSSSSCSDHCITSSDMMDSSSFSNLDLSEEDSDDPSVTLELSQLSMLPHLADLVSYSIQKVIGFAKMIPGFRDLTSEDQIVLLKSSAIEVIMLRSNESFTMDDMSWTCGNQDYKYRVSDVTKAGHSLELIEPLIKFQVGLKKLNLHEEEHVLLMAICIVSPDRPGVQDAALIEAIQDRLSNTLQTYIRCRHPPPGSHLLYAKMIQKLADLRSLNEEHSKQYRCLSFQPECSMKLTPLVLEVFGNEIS
#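 Reagent solutions, kept cold and dark, are dispensed first; compounds are then pinned in at 23 nl, plates briefly spun, and incubated 2 h at ambient temperature. Inhibition of VDR–SRC2-3 peptide binding is read by fluorescence polarization.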
# Active calls of the source: *; ? = inconclusive; & = joins results of further samples; [ ] = remark or other dose. % is scaled to controls: 0 for no effect and ±100 for the full control effect; potency is read from the fitted curve at half-maximal effect. These rows are one share of the data; the hit share may differ from the screen's.
SMILES,VDR inhibitor
COc1ccc(N2CC(NC(=O)COc3cccc(C)c3)CC2=O)cc1OC (centres undefined),-4%
CCCn1ccc2c(OCC(=O)Nc3ccccc3C(=O)OCC)cccc2c1=O,13%
COC(=O)c1ccc(C2Nc3ccc(/C(C)=N/NC(=O)C(OC)c4ccccc4)cc3C3C=CCC32)cc1 (centres undefined),-28%
CC1=Nc2ccc(C)cc2/C1=C/c1c(N)n2oc(C)cc2nc1=O,16%&20%
COc1ccc([N+](=O)[O-])cc1NC(=O)C(C)Sc1nc(-c2ccccc2)cs1 (centres undefined),-7%
C=CCOc1ccccc1CN1CCCC(CCC(=O)N(C)CCc2ccccn2)C1 (centres undefined),-2%
COc1ccc(C(C)=O)cc1COC(=O)CCCN1C(=O)c2ccccc2C1=O,-7%
CCCOc1ccc(Nc2nc(SC)ncc2C(=O)OCC)cc1,11%
c1ccc2cc3[nH]c(CN4CCOCC4)nc3cc2c1,-4%
CCOc1ccc(NC(=O)C(Cc2ccccc2)N2C(=O)c3cccc4cccc(c34)C2=O)cc1 (centres undefined),-6%
CCC(=O)N1CCc2cc(S(=O)(=O)Nc3ccc4c(c3)OCCO4)ccc21,-1%
CCOC(=O)CC(=O)c1[nH]c(C)c(C(=O)OCC)c1C,-14%
COc1ccc(-c2cc(-c3ccccc3)nc(SCC(=O)CC(=O)OC(C)C)c2C#N)cc1,-23%
COc1cccc(CN2CC(C(=O)NCc3ccc(C)c(F)c3)CCC2=O)c1 (centres undefined),-14%
CC(NC(=O)CCC(=O)c1cccs1)c1ccccc1 (centres undefined),-11%
COc1ccc(OC)c(S(=O)(=O)N2CCC(C(=O)NCc3ccccn3)CC2)c1,2%
CC(=O)c1ccc(NC(=O)C2CCN(S(=O)(=O)c3ccc4[nH]c5c(c4c3)CCCCC5)CC2)cc1,7%
CCN(C(=O)c1ccnn1C)c1ccccc1,?
CCOc1cc(N(CC)CC)ccc1/C=C(/C#N)c1nc2ccccc2[nH]1,2%
O=C1c2ccccc2C(=O)N1CCCCCCN1C(=O)c2ccccc2C1=O,6%
Cc1ccc(C(C)n2cc(C(=O)NCc3cccnc3)nn2)cc1 (centres undefined),9%
Cc1cc(C)nc(N(C#N)CC(=O)N2CCC(C(N)=O)CC2)n1,12%
Cc1ccc(C)c(N(CC(=O)NC(C)(C)C)C(=O)CCC(=O)Nc2nccs2)c1,-18%
COc1ccccc1NC(=O)CNS(=O)(=O)c1ccccc1,-4%
O=c1c2ccccc2ncn1-c1ccc(Cl)c(Cl)c1,-17%
# Other results follow:
SMILES,VDR inhibitor
O=C(COC(=O)c1ccc(O)cc1)Nc1ncc(Cl)cc1Cl,7%
CCN(CC)S(=O)(=O)c1ccc(-c2nnc(SCC(=O)Nc3nnc(C)s3)n2CC)cc1,11%
COC(=O)c1c(C)oc(C)c1S(=O)(=O)N(C)C1CCCCC1,7%
CCCCCC(=O)NC(NC(=S)Nc1ccc(S(N)(=O)=O)cc1)C(Cl)(Cl)Cl (centres undefined),6%
COCCN(C(=O)COC(=O)C1CC1)c1c(N)n(Cc2ccccc2)c(=O)[nH]c1=O,-13%
N#CC(c1ccccc1)c1cnccn1 (centres undefined),-18%
Clc1ccc(Cc2noc(CN3CCN(c4ccccc4)CC3)n2)c(Cl)c1,-12%
COc1ccccc1NC(=O)Nc1cnccn1,-27%
Cn1c(CCc2nc3ccccc3[nH]2)nnc1SCC#N,-19%
CCc1nc(Nc2cc(OC)ccc2OC)c2oc3ccccc3c2n1,13%
CCC(Sc1nc2n[nH]c(C)c2c(=N)n1-c1ccccc1Cl)C(=O)N(CC)CC (centres undefined),6%
Cc1cc(C)cc(NC(=O)CCCn2nc(C)c3c(C)n(-c4ccccc4)nc3c2=O)c1,-17%&0%
Cc1cc(C)c(S(=O)(=O)Nc2ccc3c4c(cccc24)CC3)c(C)c1,9%
COc1ccc(N2CCN(C(CNC(=O)c3cccs3)c3ccco3)CC2)cc1 (centres undefined),-20%
O=C(Nc1ccc(-n2cc(Cl)cn2)cc1)c1ccncc1,-28%
COCCN(C(=O)Nc1ccccc1)c1ccccc1,20%
COc1ccc(CCC(=O)N2CC(C)OC(C)C2)cc1 (centres undefined),-4%
CCNc1nc(CN2CCCCC2)nc2scc(-c3ccccc3)c12,-3%
CCOc1ccc(S(=O)(=O)Nc2ccc(C(=O)NCC(c3ccco3)N(C)C)cc2)cc1 (centres undefined),-9%
CC(C)(C)OC(=O)N1CCC(C(=O)Nc2ccc(C(=O)N3CCOCC3)cc2)CC1,4%
CSc1nc(N)c2ncn([C@H]3O[C@H](COP(=O)(O)OP(=O)(O)O)[C@@H](O)[C@@H]3O)c2n1,1%
C#CCOCCOCCOCCNc1nc(N2CCN(C(=O)[C@H](CCC(=O)O)n3cc(C(N)CC(C)C)nn3)CC2)nc(N2CCN(C(=O)[C@H](Cc3cc4ccccc4[nH]3)n3cc(C(N)[C@H](C)CC)nn3)CC2)n1 (some centres undefined),?
C=CCn1c(N)c(C(=O)Nc2ccc(C)cc2)sc1=S,-3%
CSc1ccc(CNC(=O)CCn2c(=O)c3cccn3c3ccc(F)cc32)cc1,13%
Cc1ccc(CNC(=O)c2ccc(-n3c(C)cc4c3CCCC4)cc2)cc1,4%

# Looked up by structure from above:
SMILES,VDR inhibitor
CCC(Sc1nc2n[nH]c(C)c2c(=N)n1-c1ccccc1Cl)C(=O)N(CC)CC (centres undefined),6%
COc1ccccc1NC(=O)Nc1cnccn1,-27%
Cc1cc(C)c(S(=O)(=O)Nc2ccc3c4c(cccc24)CC3)c(C)c1,9%
COc1ccc(CCC(=O)N2CC(C)OC(C)C2)cc1 (centres undefined),-4%
COc1ccc(N2CCN(C(CNC(=O)c3cccs3)c3ccco3)CC2)cc1 (centres undefined),-20%
CSc1ccc(CNC(=O)CCn2c(=O)c3cccn3c3ccc(F)cc32)cc1,13%
O=C(COC(=O)c1ccc(O)cc1)Nc1ncc(Cl)cc1Cl,7%

# The results go on:
SMILES,VDR inhibitor
COc1ccc(Cl)cc1NC(=O)CN(C)C(=O)Cn1cnc2c1c(=O)n(C)c(=O)n2C,6%
Cc1ccc2c(c1)/C(=N/OS(=O)(=O)c1ccccc1)CCS2,-8%
Cc1ccc2nc(C(F)C(F)(F)F)[nH]c2c1 (centres undefined),9%
COC(=O)c1ccc(Cl)cc1N(Cc1c(F)cccc1Cl)S(C)(=O)=O,-8%
CCN(C(=O)CSc1nc2ccccc2n1CC)C1CCS(=O)(=O)C1 (centres undefined),-3%
Cc1ccccc1OCC(O)Cn1c2ccccc2c2ccccc21 (centres undefined),0%
O=C(Nc1ccccc1)Oc1ccc[nH]c1=O,-10%
NCCCSC1=NCCCN1,10%
Cc1nn(CC(=O)NCC(C)c2ccccc2)c(=O)c2cccn12 (centres undefined),-7%
CN(Cc1ccccc1)C(=O)c1nc[nH]c1C(=O)N(C)Cc1ccccc1,-16%
Clc1ccccc1OCc1nnc2n1CCCCC2,10%
CCCCN(C(=O)C(C)Oc1ccc(Cl)cc1)c1c(N)n(CCCC)c(=O)[nH]c1=O (centres undefined),-5%
CCOC(=O)c1c(C)[nH]c(C)c1C(=O)COC(=O)/C=C/c1ccc(OC)cc1,-3%
N#CCCN(C(=O)COC(=O)CCc1c[nH]c2ccccc12)c1ccc(F)cc1,-6%
CSc1ncnc2c1ncn2C1OC(CO)C(O)C1O (centres undefined),4%
COc1cc(C(=O)Nc2sc3c(c2C#N)CCCC3)c(Br)c(OC)c1OC,-8%
CCC(=O)NNc1nc2c(F)cc(F)cc2s1,0%
NCCCCCc1nnc(SCc2ccccc2Cl)o1,1%
C/C=C/C1=CC(=O)C[C@H](c2ccc(F)cc2)C1,9%
CN1CCc2nc(NC(=O)COc3ccc(C#N)cc3)sc2C1,2%
Cc1ccc(NC(=O)COC(=O)CNC(=O)c2ccco2)cc1,1%
N#Cc1cnn(Cc2ccccc2)c1N,-11%
CCN1CCN(Cc2cc(=O)oc3cc(C)cc(C)c23)CC1,18%
CSc1ccccc1C(=O)NCCc1ccc(S(=O)(=O)N2CCCCC2)cc1,7%
COc1cccc(/C=C2\Sc3ccc(C(=O)NCC4CCCO4)cc3N(C)C2=O)c1 (centres undefined),-24%
# Following part
SMILES,VDR inhibitor
CCNC(=O)C(C)NC(=O)C1=NN(c2ccccc2)C(=O)CC1 (centres undefined),43%[activator]
CCc1nc(Nc2ccc(F)c(Cl)c2)c2c3c(sc2n1)CCCC3,-17%
O=C(OC1CCOC1=O)c1cccc(S(=O)(=O)Nc2cccc(Cl)c2)c1 (centres undefined),3%
Clc1ccc(-c2ccc(CNCC3CCCO3)o2)cc1 (centres undefined),4%
CC1CCCCC12NC(=O)N(CC(=O)Nc1nccs1)C2=O (centres undefined),-12%
CN(CC(=O)Nc1ccccc1Cl)C(=O)COC(=O)c1nc(Cl)c(Cl)c(Cl)c1Cl,-15%
COc1ccc(Cl)cc1NC(=O)Cn1c(C)csc1=O,-3%
CCOc1ccccc1N(C(=O)c1snc(C(N)=O)c1N)C(CC)C(=O)NC1CCCC1 (centres undefined),-4%
O=C(CSc1ncnc2c1cnn2-c1ccccc1Cl)N1CCN(C(=O)c2ccco2)CC1,6%
COc1ccccc1C(=O)Nc1ccc(C)cc1C(=O)c1ccccc1,-9%
O=c1c2ccccc2c(-c2ccccc2)nn1Cc1ccccc1,-11%
CCOCCCNC(=O)C1CCN(S(=O)(=O)c2ccc(C)cc2)CC1,-5%
Cc1cc(S(=O)(=O)Nc2ccc3c(c2)n(C)c(=O)n3C)ccc1F,-5%
Cc1cc(C)c(C(=O)CSc2nnc(C)s2)c(C)c1,-17%
CN(C)C(=O)N1CCC(C(=O)NCc2ccc(F)cc2Cl)CC1,-3%
O=C(Cn1ncc2c(=O)oc3ccccc3c21)N1CCN(c2ccccn2)CC1,-14%
CC(C)Cc1nnc(NC(=O)c2cccc(S(=O)(=O)N3CCN(C)CC3)c2)s1,-14%
CCO[C@H]1OC(C(=O)N2CCCCCCC2)=C[C@@H](c2csc3ccccc23)[C@@H]1CCCO,-10%
COCCNC(=O)COC(=O)C1=Cc2ccccc2OC1,-12%
CCOC(=O)C1(CCOc2ccccc2)CCN(Cc2cccc(OC)c2O)CC1,15%
OCC1(Cc2cccc(C(F)(F)F)c2)CCN(Cc2cc3ccccc3o2)CC1,0%
CCC[C@@H]1O[C@@H]2C[C@@H]3[C@H]4CCC5=CC(=O)C=C[C@@]5(C)[C@H]4[C@H](O)C[C@@]3(C)[C@@]2(C(=O)CO)O1,-1%
COc1ccc(S(=O)(=O)Cc2ccccc2)cc1N,-11%
CCN(CC)CCCNC(=O)Cn1c(-c2cccs2)cc2cc(Cl)ccc21,12%
COc1ccc(Cn2nnnc2CN(CCCN2CCOCC2)Cc2cc3cc(OC)ccc3[nH]c2=O)cc1,9%

# Overlap with the part before: 7 compounds, followed by the next part.
SMILES,VDR inhibitor
COCCNC(=O)COC(=O)C1=Cc2ccccc2OC1,-12%
CCOC(=O)C1(CCOc2ccccc2)CCN(Cc2cccc(OC)c2O)CC1,15%
OCC1(Cc2cccc(C(F)(F)F)c2)CCN(Cc2cc3ccccc3o2)CC1,0%
CCC[C@@H]1O[C@@H]2C[C@@H]3[C@H]4CCC5=CC(=O)C=C[C@@]5(C)[C@H]4[C@H](O)C[C@@]3(C)[C@@]2(C(=O)CO)O1,-1%
COc1ccc(S(=O)(=O)Cc2ccccc2)cc1N,-11%
CCN(CC)CCCNC(=O)Cn1c(-c2cccs2)cc2cc(Cl)ccc21,12%
COc1ccc(Cn2nnnc2CN(CCCN2CCOCC2)Cc2cc3cc(OC)ccc3[nH]c2=O)cc1,9%
CCOCCCNCc1cc(Cl)cc(Cl)c1OCC,-5%
CCOC(=O)c1ccc(NC(=O)CCc2c(C)nc3c(c(C)nn3C)c2C)cc1,5%
O=C(Cn1cnc2cc([N+](=O)[O-])ccc2c1=O)Nc1cccc(S(=O)(=O)N2CCOCC2)c1,-18%
CCOC(=O)c1cnc2c(-c3ccccc3)c(C)nn2c1N,0%
CCOC(=O)c1nn(-c2ccc(F)cc2)c(=O)c2c(N)scc12,7.9µM*
CCOC(=O)[C@H]1[C@H]2COc3ccc(Br)cc3[C@@H]2N2C(=O)CN(CC3CCCO3)C(=O)[C@@]12C (some centres undefined),-12%
COc1ccc2nc(SCC(=O)NN)cc(C)c2c1,-7%
CC(=O)Nc1ccc(S(=O)(=O)NCCC(=O)OC(C)C(=O)NC2(C#N)CCCCC2)cc1 (centres undefined),-2%
CCN(CC)C(=O)Oc1ccnc2cc(Cl)ccc12,6%
O=C(c1ccc(Cl)cc1)N1N=C(c2ccccn2)CC1(O)C(F)(F)F (centres undefined),2%
O=C(NC(Cc1c[nH]c2ccccc12)C(=O)N/N=C/c1cccnc1)c1cccs1 (centres undefined),-12%
COc1cc(CN2CCSCC2)c([N+](=O)[O-])cc1OC,-16%
CCOc1ccc(NC(=S)NC(C)CCc2ccccc2)cc1 (centres undefined),-7%
Cc1ccc(-c2nc3ccc(Cl)cn3c2Nc2ccccc2C)s1,-7%
COCCCN1C(=O)c2ccc(C(=O)Nc3ccccc3Cl)cc2C1=O,-17%
NS(=O)(=O)c1ccc(CCNC(=O)COC(=O)C2CCN(c3ccc(C(F)(F)F)cn3)CC2)cc1,-10%
O=S(=O)(c1ccc(NCCOc2ccccc2)nc1)N1CCCC1,0%
Cc1cccc(N2CCN(Cc3nnc(-c4ccc5c(c4)OCO5)o3)CC2)c1C,-11%

# Exported with each value named: part of the list above
Compound: CCOC(=O)[C@H]1[C@H]2COc3ccc(Br)cc3[C@@H]2N2C(=O)CN(CC3CCCO3)C(=O)[C@@]12C (some centres undefined)
  VDR inhibitor = -12%
Compound: COc1ccc2nc(SCC(=O)NN)cc(C)c2c1
  VDR inhibitor = -7%
